# Assay outcomes as filed in PubChem BioAssay.
# GIV-Gai inh – GIV-Galpha-i interaction inhibition | Galpha-i3/FITC-GIV peptide fluorescence polarization, 90 min; stronger effect = lower value; scaled: aluminum fluoride 0%, vehicle 100% | percent of control (FP), % (no concentration beside the values) | P08753 | 210,000 tested, 0.42% active;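 active = replicate mean at 85% of control or lower, very high polarization wells dropped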;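 note: wells of about 15 µL received 100 nL stock; the first replicate is given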
# Target sequence (P08753 whole entry, looked up): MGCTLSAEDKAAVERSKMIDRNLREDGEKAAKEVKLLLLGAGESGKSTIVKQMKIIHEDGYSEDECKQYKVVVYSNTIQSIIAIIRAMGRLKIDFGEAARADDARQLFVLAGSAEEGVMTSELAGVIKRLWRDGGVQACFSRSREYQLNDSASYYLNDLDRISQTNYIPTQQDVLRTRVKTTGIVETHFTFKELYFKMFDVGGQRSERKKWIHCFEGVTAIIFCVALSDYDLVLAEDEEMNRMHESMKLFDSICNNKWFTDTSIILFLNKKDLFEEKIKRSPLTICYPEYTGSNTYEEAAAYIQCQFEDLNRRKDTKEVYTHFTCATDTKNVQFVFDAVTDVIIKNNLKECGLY
# Sa growth 42C – inhibitors of Staphylococcus aureus growth at 42 °C; 170,000 tested, 0.53% active; S. aureus RN4220 growth, OD600, 20 h; stronger effect = lower value; relative growth, % (concentration not given with the values);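 active = growth at 42 °C up to 50% and 20 or more points under that at 30 °C, or under 10% at both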;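 note: 300 nL library stock went into each well; scaled to the means of positive and negative controls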
# HCMV NEC inh – inhibitors of HCMV UL50-UL53 nuclear egress complex interaction; HTRF UL50-UL53 interaction, normalized percent inhibition; 190,000 tested, 0.15% active; AID 1918969; inhibition, % (no concentration beside the values);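 active = both replicates at 50% or more, plus weaker picks with an unusually low signal ratio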;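 note: stock transfer was 100 nL into about 20 µL; 0% = negative control wells and 100% = wells with untagged competitor protein; inactives centre near -12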
# Sa growth 42C second temp – further read-out of Sa growth 42C, marked with its call; relative growth, %; measured here: growth at 30 °C;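 optical density after 20 h as mean of two plates; 100% = untreated growth and lower means inhibition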
# The depositor's hits bear a star; . = no result given; & = joins results of further samples. An unsorted share of the library; 0.83% or so of the library scored in one or more.
# The first 3 entries, ahead of the listing:
SMILES	GIV-Gai inh	Sa growth 42C	Sa growth 42C second temp	HCMV NEC inh
Cc1ccc(C)n1C(Cc1c[nH]c2ccccc12)C(=O)O (stereo not given)	114	65	68	44
COc1cccc(-c2ncnn2-c2cccc(Cl)c2C)c1	100	91	88	-16
Cc1cc(-c2ccc(C)c(S(=O)(=O)N3CCc4ccccc43)c2)on1	106	99	105	6

# The list itself, previewed entries included:
SMILES	GIV-Gai inh	Sa growth 42C	Sa growth 42C second temp	HCMV NEC inh
Cc1ccc(C)n1C(Cc1c[nH]c2ccccc12)C(=O)O (stereo not given)	114	65	68	44
COc1cccc(-c2ncnn2-c2cccc(Cl)c2C)c1	100	91	88	-16
Cc1cc(-c2ccc(C)c(S(=O)(=O)N3CCc4ccccc43)c2)on1	106	99	105	6
CC(=O)Nc1cc2ccc(OC(C)=O)cc2oc1=O	106	83	84	.
C=CCn1c(SCC(=O)c2ccc(Cl)s2)nnc1-c1ccncc1	.	101	95	-25
Cc1cccc(C(=O)NCCc2nc3ccccc3n2CCC(C)C)c1	98&102	100	71	1&4
CCOc1ccc(-c2nonc2NC(=O)c2oc3cc(C)c(Cl)cc3c2C)cc1OCC	108	97	87	.
COc1ccc(C)cc1NC(=O)CN1CCCC1c1ccc2c(c1)OCCCO2 (stereo not given)	.	70	63	-14
Cc1ccc(C(O)CN=Cc2c(O)ccc3ccccc23)cn1 (stereo not given)	.	103	104	62*
COc1ccc(N2CCN(S(=O)(=O)CCNC(=O)c3ccc(C(F)(F)F)cc3)CC2)cc1	113	104	98	.
COc1ccc(C2/C(=C(\O)c3ccc(F)cc3)C(=O)C(=O)N2c2nnc(C)s2)cc1OC (stereo not given)	103	97	104	.
CN1CCN(C(=O)c2ccc(C(C)(C)C)cc2)CC1	100	86	79	-30
CC(C)C(=O)Nc1ccc2c(c1)nc1n2CCN(C(C)C)C1	101	.	.	-14
Cc1ccc(NC(=O)Cc2c(O)c3ccccc3[nH]c2=O)c(C)c1	101	89	86	-17
O=C(CSc1ccccn1)N1CCC(c2ccccc2)=N1	.	108	101	-10
CC(C)Cn1c(SCC(=O)c2ccc(Cl)s2)nnc1-c1ccco1	.	55	51	-24
CCOC(=O)c1c(NC(=O)COc2ccc(CC)cc2)sc2c1CCCC2	106	84	90	.
Cc1ccccc1Cn1cnc2c(cnn2C(C)(C)C)c1=O	95	.	.	5
COc1cccc(OCCNC(=O)c2cc(C(F)(F)F)cc(C(F)(F)F)c2)c1	.	94	96	-7
COc1cccc(CNC(=O)C2CCCCN2S(=O)(=O)c2ccc(F)cc2)c1 (stereo not given)	98	102	92	.
COC(=O)c1c(C)n(S(C)(=O)=O)c2ccc(NS(C)(=O)=O)cc12	102	105	95	6
Cn1c2c(c(SCc3ccc(Cl)cc3)nc1=O)CCC2	105	.	.	11
Cc1nn(C)c2c1c(C(F)(F)F)cc(=O)n2C(C)C(=O)NCc1ccc(Cl)cc1 (stereo not given)	99	82	91	.
CCC(=O)NC1(Cc2ccc(O)cc2)CCCCC1	111	111	96	0
Cc1c(C(=O)N2CCc3ccccc32)oc2c1C(=O)CC(C)(C)C2	104	96	81	.
Cc1cc(N)ccc1-n1cnnn1	103	104	79	-13
COC(=O)c1[nH]nc2c1C(=O)N(c1ccc(F)cc1)C2=O	96	77	65	.
Cc1ccc(-c2cc(NC(=O)CN3CC(C(=O)N4CCOCC4)Oc4ccccc43)on2)cc1 (stereo not given)	.	116	91	9
CCc1cccc(NC(=O)C(NC(=O)C2CCC(C)CC2)C(C)C)c1 (stereo not given)	101	91	87	.
O=C(CSc1nc(-c2ccccc2)no1)Nc1ccc(Br)cc1	104	.	.	-8

# The final 2 records of the part before come first, to join the parts:
SMILES	GIV-Gai inh	Sa growth 42C	Sa growth 42C second temp	HCMV NEC inh
CCc1cccc(NC(=O)C(NC(=O)C2CCC(C)CC2)C(C)C)c1 (stereo not given)	101	91	87	.
O=C(CSc1nc(-c2ccccc2)no1)Nc1ccc(Br)cc1	104	.	.	-8
COc1ccc(-n2c(=O)c3ccc(C(=O)NCc4ccc(C)cc4)cc3n(CC(=O)Nc3ccc(C)cc3)c2=O)cc1	99	89	97	-11
CC(CN1CCOCC1)OC(=O)c1ccco1 (stereo not given)	106	88	83	-20
O=c1c2[nH]c3ccc(F)cc3c2ncn1CCc1ccccc1	98	.	.	-23
CCOC(=O)CSc1nnc2n(Cc3ccccc3)c(=O)c3c(n12)-c1ccccc1CC31CCCCC1	105	.	.	-1
COc1cccc(OCCOc2c(Cl)cc(-c3nc4sc5c(c4c(=O)[nH]3)CCCC5)cc2OC)c1	108	.	.	-21
O=C1N(CCc2ccccc2)c2ccccc2C12OCCCO2	105	107	95	-14
Cc1nn(-c2ccccc2)c(Cl)c1C1N(Cc2ccccc2)CCN1Cc1ccccc1	.	87	90	2
CCOC(=O)/C=C1\CCCCCN1	102	98	82	.
O=C1COc2cc(S(=O)(=O)N3CCC(C(=O)N4CCc5ccccc5C4)CC3)c(Cl)cc2N1	107	.	.	11
NC(=O)c1ccccc1NC(=O)C1C2C=CC(C2)C1C(=O)O (stereo not given)	100	109	102	-6
CCOc1ccc(N(CC(=O)N2CCN(c3ccccc3OC)CC2)S(=O)(=O)c2ccc(SC)cc2)cc1	96	.	.	-27
O=C(Nc1cccc2c1CCCC2)c1cnn(-c2ccc(Br)cc2)c1	105	.	.	-30
Cc1cc(C)nc(SCc2ccc(-c3nnc4n3CCCCC4)cc2)n1	.	107	87	-4
Cc1ccc(S(=O)(=O)C(CNC(=O)C(=O)NCc2ccc(Cl)cc2)c2ccco2)cc1 (stereo not given)	95	92	99	.
O=C(CSc1ncc(C(F)(F)F)cc1Cl)c1ccc(O)cc1O	.	81	62	3
Cc1ccc(NC(=O)C(CC(C)C)NS(=O)(=O)c2ccc3c(c2)oc(=O)n3C)c(C)c1 (stereo not given)	105	104	93	0
Cc1sc(/N=C/c2cn(Cc3ccccc3)c3ccccc23)c(C#N)c1C	99	96	80	.
CCN1CCN(CCNC(=O)c2cc(-c3ccccc3)c(N3CCOCC3)s2)CC1	105	92	100	-2
COc1ccc(OCC(=O)N2CCN(C(=O)c3cccc(OC)c3)CC2)cc1	107	103	94	-7
Cc1cccc(-c2noc(-c3cn(-c4ccccc4)c(=O)c4ccccc34)n2)c1	98	.	.	-19
COc1ccc2c(CN3c4ccccc4CC3C)cc(=O)oc2c1 (stereo not given)	.	101	104	1
CCN(CC(=O)Nc1ccc(N2CCOCC2)cc1)CC(=O)Nc1cc(C)on1	.	73	90	-24
Cc1cc(=O)oc(C)c1C(=O)NCCC1=CCCCC1	96	92	100	3
CSc1nc2ccccc2n1Cc1ccccc1F	102	105	84	-4
COC(=O)c1ccc(C2C3=C(CC(c4ccco4)CC3=O)Nc3ccccc3N2C(=O)C2CC2)cc1 (stereo not given)	109	88	65	-18
CCN(CC)CC(=O)N1N=C(c2cccs2)CC1c1ccco1 (stereo not given)	101	104	84	-45
COC(=O)c1cnc(N2CCCN(S(=O)(=O)c3cccc4nonc34)CC2)nc1C(F)(F)F	104	96	90	-16
COc1ccc(CCNC(=O)C2CCCN(c3nc4ccccc4o3)C2)cc1OC (stereo not given)	99	95	90	4
CCOc1ccc(NC(=S)NCC2CCCO2)cc1 (stereo not given)	102	100	92	-4
CCN1CCCC1CNC(=O)c1ccc(-n2c(C)cc3c2CCCC3)cc1 (stereo not given)	104	.	.	4
COc1ccc(C(=O)OCC(=O)NC2CC2)cc1	.	73	89	-32
OCC1CCCN(C(=S)NCc2ccccc2)C1 (stereo not given)	.	95	89	3
O=C(Nc1nc(-c2ccccc2)cs1)C1COc2ccccc2O1 (stereo not given)	101	.	.	-5
COc1ccccc1-c1nc2c3ccccc3ncn2n1	113	.	.	-16
CNC(=O)C1CCCN(c2nnc(-n3c(C)ccc3C)s2)C1 (stereo not given)	106	100	88	-11
Cc1csc(OCC(=O)Nc2ccc(C)c(C)c2)n1	.	99	88	-3
Cc1ncoc1C(=O)NCc1ccc(Cl)cc1	97	75	82	.
COc1ccc(-c2nnc3c4ccccc4c(-c4ccccc4)nn23)cc1	105	86	96	-16
O=C(Nc1ccc(C(=O)N2CCN(c3ccccc3)CC2)cc1)c1nsc2ccccc12	101	110	92	.
Cc1ccc(Nc2cc(=O)[nH]n2C)cc1Cl	106	96	88	20
Cc1nc2ncnn2c(C)c1CCC(=O)N1CCN(c2ccc(F)cc2)CC1	105&95	114	92	-24&-5
CN(C(=O)c1ccccc1)c1ccc(OCC(=O)NC2CCS(=O)(=O)C2)cc1 (stereo not given)	100	90	94	.
O=C(CN1c2ccc(F)cc2-c2ccccc2S1(=O)=O)N1CCOCC1	101	.	.	-26
CCn1c(C(=O)N2CCOCC2)cc2c(=O)oc3ccccc3c21	109	.	.	9
Cc1nn(CCC#N)cc1/C=N/NC(=O)CSc1nc2ccccc2[nH]1	.	94	80	-34
COc1ccc(OC)c(C2C(C(=O)Nc3nc4ccc(Br)cc4s3)=C(C)NC3=C2C(=O)CC(C)(C)C3)c1 (stereo not given)	88	.	.	-8
CCC(Sc1nnc(C)n2c1cc1oc(C)cc12)C(=O)Nc1cccc(OC)c1 (stereo not given)	102	92	81	.
CCCCC(C(=O)O)n1c(O)c(C2=c3ccccc3=NC2=O)sc1=S (stereo not given)	101	95	79	-36
c1ccc(-c2nc3ccccn3c2Nc2ccc3c(c2)OCCO3)cc1	98	97	94	.
CN1C(=O)c2ccccc2Sc2ccc(NC(=O)COc3ccccc3)cc21	107	140	94	.
O=C(COC(=O)c1cccc(Cl)c1)c1ccccc1	.	110	89	-5
O=C(CSCc1nc2scc(-c3cccs3)c2c(=O)[nH]1)Nc1nc2c(s1)CCCC2	.	107	88	-34
CCCCn1c(CN2CCOCC2)nc2cc(NC(=O)C3CCCCC3)ccc21	96	.	.	-8
FC(F)(F)c1cccc(NCn2nc(-c3ccccc3)oc2=S)c1	.	72	101	-7
CCOC(=O)c1cc(-c2ccccc2)sc1NC(=O)COC(=O)c1ccco1	.	87	96	-5
Cc1c(C#N)c2ccccn2c1C(=O)NN	.	102	96	-32
C=CCn1c(=O)c2ccccc2n2c(SCC)nnc12	.	89	85	-25
CN1CCN(CCC(O)COc2ccc(OCC(O)CCN3CCN(C)CC3)cc2)CC1 (stereo not given)	96	117	110	-18
Cc1n[nH]c(C)c1Cc1ccc(N)cc1	100	92	80	0
CSc1nc(C)nc(Sc2ccccn2)c1C#N	104	80	66	-33

# (listing goes on)
SMILES	GIV-Gai inh	Sa growth 42C	Sa growth 42C second temp	HCMV NEC inh
CC(=O)N1CCCSc2ccc(S(=O)(=O)NCc3cccnc3)cc21	101	.	.	-22
CCCCn1nc(C(=O)Nc2ccc3nc(C)sc3c2)ccc1=O	.	85	77	-41
CC(C)(C)n1c(-c2ccncc2)n[nH]c1=S	102	83	81	-26
Cc1ccc2cccc(NC(=O)c3cccc4ccccc34)c2n1	109	95	94	-8
Cc1ccc(N=C2CSc3nnc(-c4cccnc4)n3N2)cc1	117	94	74	-13
Cc1cc(C)c(COC(=O)c2nonc2N)c(C)c1	.	92	90	-6
Cc1c(C(C)C)c(=O)oc2cc(O)ccc12	.	101	93	6
O=C(c1snc2ccc(Cl)cc12)N1CCN(c2ccccc2)CC1	.	92	97	-19
Cc1ccc(C)c(NC(=O)c2sc3nc(-c4ccccc4)cn3c2C)c1	106	.	.	-17
CCCn1c(NC(=O)[C@@H](NS(=O)(=O)c2ccccc2)C(C)C)nc2ccccc21	.	81	92	-20
Cn1c(=O)c2c(-c3ccc(Cl)cc3)n(-c3ccccc3O)cc2n(C)c1=O	104	.	.	-16
CCN(Cc1ccccc1)C(=O)c1cccc(N2C(=O)CCC2=O)c1	101	94	95	-6
Cc1cccc(OCC(=O)Nc2cccc(OCc3cc(=O)n4cccc(C)c4n3)c2)c1	101	100	97	.
Cc1cc(C)cc(N2C(=O)CS(=O)(=O)C23C(=O)N(Cc2ccccc2)c2ccccc23)c1 (stereo not given)	102	108	93	.
CC(C)OC(=O)c1cc2c(ccn2C)n1CCC#N	109	97	69	-6
Cc1ccc(-n2nc(C(=O)N3CCN(c4ccccc4F)CC3)c3c4ccccc4n(C)c3c2=O)cc1	98	105	92	-9
Cc1nnc(SCC(=O)N(C(C)C)C(C)C)[nH]c1=O	101	103	73	-15
CCCNS(=O)(=O)c1cc(-c2nn3c(C)nnc3c3ccccc23)ccc1C	103	97	86	-4
CCCS(=O)(=O)N1CCC(C(=O)NCc2cccnc2)CC1	106	108	92	-3

# 5 entries out of the list above, arranged by the value under GIV-Gai inh, rising:
canonical_smiles | GIV-Gai inh | Sa growth 42C | Sa growth 42C second temp
Cc1ccc(-n2nc(C(=O)N3CCN(c4ccccc4F)CC3)c3c4ccccc4n(C)c3c2=O)cc1 | 98 | 105 | 92
CC(C)(C)n1c(-c2ccncc2)n[nH]c1=S | 102 | 83 | 81
Cn1c(=O)c2c(-c3ccc(Cl)cc3)n(-c3ccccc3O)cc2n(C)c1=O | 104 | . | .
CC(C)OC(=O)c1cc2c(ccn2C)n1CCC#N | 109 | 97 | 69
Cc1ccc(N=C2CSc3nnc(-c4cccnc4)n3N2)cc1 | 117 | 94 | 74
